Screening results from PubChem.
HPGD block = qHTS Assay for Inhibitors of HPGD (15-Hydroxyprostaglandin Dehydrogenase). AID 894, 2007. hit rate 4.3% among 150,000. 15-hydroxyprostaglandin dehydrogenase [NAD(+)] (Homo sapiens), P15428. purified HPGD, NADH fluorescence kinetic, PGE2 substrate. Potency, µM, for the others: at the highest dose activity change, negative = inhibition, actives largely listed as inhibitors; active = well fitted inhibition curve with a large enough effect (not every such curve was filed as active); inconclusive = small, poorly fitted or top-dose-only effect, or another doubt; inactive = no such curve, though single readings can be large or run the other way;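 also: top concentration of the series not given in the record; plate controls included wells without enzyme; inactives centre near -10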
Target sequence (P15428 whole entry, looked up): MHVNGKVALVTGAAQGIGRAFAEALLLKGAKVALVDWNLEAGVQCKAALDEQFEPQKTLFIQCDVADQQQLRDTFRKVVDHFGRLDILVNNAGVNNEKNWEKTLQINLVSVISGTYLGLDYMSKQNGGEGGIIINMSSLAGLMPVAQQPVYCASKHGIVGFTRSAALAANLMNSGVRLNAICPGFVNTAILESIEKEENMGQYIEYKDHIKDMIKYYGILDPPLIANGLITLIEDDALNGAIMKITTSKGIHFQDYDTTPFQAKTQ
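NADH formation kinetics: reaction with 30 uM PGE2 and 1 mM NAD+ (final), 20 nM enzyme, Tris-HCl pH 8 with Tween 20, after 15 min compound preincubation at room temperature. Fluorescence change, last versus first of five reads.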
* marks the source's active call; other numbers are inactive results; ? = inconclusive; & = joins results of further samples. % is scaled to controls: 0 for no effect and ±100 for the full control effect; potency is read from the fitted curve at half-maximal effect. Not all compounds are listed; rates above refer to the full screens.

canonical_smiles,HPGD block
CCCN(CCC)S(=O)(=O)c1ccc(C(=O)OCCN2C(=O)c3cccc4c(N5CCOCC5)ccc(c34)C2=O)cc1,-10%
O=C(Cc1ccc(Cl)cc1)c1c(O)cc(O)cc1O,?
CCOC(=O)C1CCN(c2cc(=O)n(C3CCCCC3)c(=O)[nH]2)CC1,-5%
CC1S/C(=C(\C#N)C(=O)NCc2ccco2)N(Cc2ccco2)C1=O (stereo not drawn),-3%
C=CCn1cc(-c2cccc(Cl)c2)cc(C#N)c1=O,?
CC(C)(C)c1ccc(C(=O)NNC(=O)C(=O)N2CCCCC2)cc1,-2%
CCOC(=O)CNC(=O)c1nn(-c2cccc(OC)c2)c(=O)c2ccccc12,1%
N#CC(C#N)=c1ccc2c(c1)NC1(CCCCC1)N=2,-19%
CCOC(=O)c1nn(-c2ccccc2C)c(=O)c(C#N)c1C,-2%
Cc1nnc(N/N=C/c2cc([N+](=O)[O-])c(N3CCC(C)CC3)cc2N2CCC(C)CC2)n1N,25µM*
CN1C(=O)CC(C(=O)Nc2ccc(F)cc2)SC1=Nc1ccc2c(c1)OCO2 (stereo not drawn),-10%
O=C(CSc1nnc(-c2ccccc2Cl)o1)Oc1ccc(Br)cc1,-20%
O=C(OCCN1CCCC1=O)c1cncc(Br)c1,0%
C(=N\N1CCN(Cc2ccccc2)CC1)/c1cccnc1,-5%
COC(=O)C1=C(C)Nc2c(c(=O)n(C)c(=O)n2C)C1c1ccncc1 (stereo not drawn),?
Cn1ccnc1C(=O)c1cc(=O)c2ccccc2o1,-9%
Cc1cccc(N2CCN(C(=O)c3cc4n(n3)C(C(F)(F)F)CC(c3ccco3)N4)CC2)c1C (stereo not drawn),-10%
Oc1cccc(C=NCc2ccccc2)c1,-9%
CN1[C@@H](CC(=O)c2ccccc2)CCC[C@H]1C[C@H](O)c1ccccc1,-8%&-3%&-11%
N#CC1=C(N)Oc2n[nH]c(-c3cccs3)c2C1c1cccs1 (stereo not drawn),-28%
CCCCCCc1ccc(OCC(=O)OC)cc1OCC(=O)OC,-26%
CC(=O)NN1C(=O)/C(=C\c2ccccc2)SC1=S,-4%
Cc1ccc(C(=O)NC(NCc2ccccc2)C(Cl)(Cl)Cl)cc1 (stereo not drawn),-13%
CSc1nnc2c3cc(C)ccc3n(Cc3ccccc3)c2n1,?
CCC(=O)OC1(C)C(=O)C=C2C=C(C3CC3)OC=C2C1=O (stereo not drawn),-4%
Cc1ccc(NC(=O)N/C=C/c2ccco2)cc1,-26%
Cc1ccc(C2CC(c3ccccc3)=NN2C(=O)CSc2nnc(-c3ccc(Cl)cc3)o2)o1 (stereo not drawn),-14%
COc1ccc(-n2c(=O)c(C)nc3cnc(N4CCNCC4)nc32)cc1,-21%
CCOc1ccc(C(=O)Nc2ccc(N3CCN(C)CC3)cc2)cc1Br,-10%
CC1=NN(c2ccccc2)C(=O)C1c1ccccc1 (stereo not drawn),0%
Cn1c(CCCOc2ccc(Cl)cc2Cl)nnc1SCC(=O)Nc1cccc(F)c1,-8%
O/N=C/c1ccc(OCc2ccccc2)c(Br)c1,-22%
CC(=O)c1ccc(OC(=O)C2CC(=O)N(c3cccc(C)c3)C2)cc1 (stereo not drawn),-10%
COc1ccccc1OCc1nc(-c2ccc([N+](=O)[O-])cc2)no1,-18%
Cc1cc2c(c(=O)n1Cc1cccnc1)C(c1ccccc1)C(C#N)=C(N)O2 (stereo not drawn),-5%
COc1ccc(C2C(C(=O)N3CCN(c4ccccc4)CC3)c3ccccc3C(=O)N2C)cc1OC (stereo not drawn),-8%
COc1ccc(/C=N/N2CCN(c3ccccc3OC)CC2)cc1OC,-3%
Fc1ccc(C(OCCCc2cnc[nH]2)c2ccc(F)cc2)cc1,-5%
Cc1cc(C)c(C(N)=O)c(Nc2cccc3ccccc23)n1,-5%
Clc1ccc(-c2nnc(-c3cccc4ccccc34)o2)cc1Cl,-15%
Cc1csc(NC(=O)c2ccc(C)c(S(=O)(=O)N3CCCCC3)c2)n1,-11%
CCOC(=O)c1c(-c2ccc(OC)cc2)csc1NC(=O)CSc1ncnc2sccc12,-9%
O=C(NC(Cc1ccccc1)C(=O)O)/C(=C\c1ccco1)NC(=O)c1ccccc1 (stereo not drawn),-16%
CSCC[C@H](NC(=O)OC(C)(C)C)C(=O)N1CCC(C(=O)N[C@@H](C)C(=O)O)CC1,-5%
CCc1ccc(NC(=O)N(CCCOC(C)C)C2CCN(C(C)=O)CC2)cc1,-6%
CCN(CCCNC(=O)C1CCN(S(=O)(=O)CC)CC1)c1cccc(C)c1,0%
O=C(CSc1nccn1-c1ccccc1)c1ccc(Cl)cc1,-13%
Cc1ccc(/C=N/n2c(-c3cccnc3)n[nH]c2=S)s1,13µM*
CCCCNc1nc(C)nc2c1nc(-c1ccccc1)n2CCCN1CCCCC1C (stereo not drawn),?
Cc1nn(-c2ccccc2)c(Cl)c1C(=O)NCc1cccs1,10µM*
Cc1cccc2cc(CN(Cc3ccc4c(c3)OCO4)Cc3nnnn3C3CCCC3)c(=O)[nH]c12,-3%
CC(O)C(C(=O)OCc1ccc([N+](=O)[O-])cc1)N1C(=O)c2ccccc2C1=O (stereo not drawn),3%
CCC(Sc1ncccc1C(=O)O)C(=O)N1CCCC1 (stereo not drawn),-4%
Cc1ccc(NCC(=O)c2ccccc2)cc1Cl,-25%
CCn1ccc(C(=O)NC2=NCCS2)n1,-1%
N#CC1=C(N)OC2=C(C(=O)CC(c3ccccc3)C2)C1c1cccnc1 (stereo not drawn),-12%
N#CCCN/N=C(\Cc1nc2ccccc2[nH]1)c1ccccc1,-17%
Cc1cccc(NC(=O)C2C3C=CC(C4CC34)C2C(=O)O)c1 (stereo not drawn),-21%
NC(N)=NCCN1CCCCCCC1,-3%&-6%
CCOC(=O)c1ccc(NC(=O)CCC2COc3ccccc3O2)cc1 (stereo not drawn),-7%

Next entries:
canonical_smiles,HPGD block
COc1ccc2c(c1)O[C@@H](c1cccc(C(F)(F)F)c1)[C@H](OC(=O)N[C@H](C)C1CCCCC1)C2=O,0%
Cc1ccc2[nH]c3c(N4CCOCC4)ncnc3c2c1,?
CC(=O)c1cc(F)c(N2CCOCC2)cc1C,-27%
COc1cc(/C=C2/SC(=S)N(c3ccccc3)C2=O)ccc1Oc1nc(N2CCOCC2)nc(N2CCOCC2)n1,-14%
CCCCOc1ccc(C(O)(CCC)CCN2CCOCC2)cc1 (stereo not drawn),0%
C=C(C)Cn1c(SCCCO)nc2c1c(=O)[nH]c(=O)n2C,-11%
Cc1cc(NC(=O)COc2ccc(Cl)cc2Cl)n(CCC#N)n1,-8%
COc1ccc(OC)c(-c2cnc(OC(C)(C)C)nc2OC(C)(C)C)c1,-3%
Cc1ccc(C(C)C)cc1OCC(=O)N/N=C/c1ccc2c(c1)OCCO2,-19%
COc1ccccc1Nc1ncnc2ccc(C)cc12,-7%
Cc1cc(NCc2ccco2)n2c(nc3ccccc32)c1C#N,?
NC(=O)c1cnn2c(C(F)(F)F)cc(-c3ccc(F)cc3)nc12,?
Cc1c(NC(=O)CSc2nnc(C(C)Oc3ccc(Cl)cc3)n2-c2ccccc2)c(=O)n(-c2ccccc2)n1C (stereo not drawn),-5%
Cc1ccc(C(=O)CSc2nnc(-c3c[nH]c4ccccc34)o2)cc1,-10%
CCn1c(COc2ccc(C)cc2)nnc1SCc1ccc(C#N)cc1,-4%
Cn1c(C(=O)N2CCCC(C(=O)O)C2)cc2sccc21 (stereo not drawn),2%
O=C(Oc1ccccc1C(=O)Nc1ccccc1)c1ccc(Br)c([N+](=O)[O-])c1,-22%
CCC1CCCCN1C(=O)Cn1c(C(=O)OC)cc2sc(Cl)cc21 (stereo not drawn),3%
O=C(Nc1ccccc1Cl)c1cc(S(=O)(=O)N2CCOCC2)cs1,-8%
Cc1cccc(Oc2ccc(N)cc2)c1,-1%
Cc1c(NC(=O)c2cc(-c3cccs3)nc3ccccc23)c(=O)n(-c2ccccc2)n1C,-7%
Cn1c(NCC2CCCO2)nc2c1c(=O)n(Cc1ccccc1)c(=O)n2C (stereo not drawn),-14%
O=C(O)CCC(=O)c1ccc2c(c1)OCCCO2,-30%
O=C(NCc1ccco1)c1ccc(Cn2c(=O)c3sccc3n(Cc3ccc(F)cc3)c2=O)cc1,-18%
CCC(Sc1nncn1C)C(=O)Nc1ccccc1OC (stereo not drawn),-12%
O=C(Nc1cccc(NC(=O)c2ccco2)c1)c1ccc2c(c1)OCO2,-13%
Cc1ccc(-n2c(-c3ccco3)nc3c(cnn3-c3ccccc3C)c2=O)cc1,-5%
O=C(c1ccc2c(c1)OCO2)N1CCCCC1,0.1µM*
CCOC(=O)N1CCC(N2C(=O)c3ccc(C(=O)Nc4ccc(F)cc4F)cc3C2=O)CC1,-2%
C=CCN(CC=C)C(=O)c1ccncc1,-12%
CCOc1ccc2nc(NC(=O)CSc3nnc(-c4ccncc4)n3CC3CCCO3)sc2c1 (stereo not drawn),-7%
O=C(NC1CC1)c1scc2c1OCCO2,-11%
C[C@@]12CCC(=O)C[C@@H]1CC(=O)[C@H]1[C@H]3CCC[C@]3(C)C(=O)C[C@@H]12 (tested in a mixture with another compound),0%
S=C(NCc1ccc2c(c1)OCO2)Nc1ccc(-c2nc3ccccc3[nH]2)cc1,-19%
O=C(CSc1nnc(-c2ccc(O)cc2)o1)Nc1ccc2c(c1)OCCO2,-4%
CCOC(=O)c1ccc(S(=O)(=O)N2CCN(CC(=O)NC(=O)NC(C)(C)C)CC2)cc1,-12%
COc1ccc(-c2nc(-c3ccc(NC(=O)c4ccncc4)cc3)no2)cc1OC,-3%
CN(C)CCOC(=O)C1(c2ccccc2)CCCC1,-5%
CCCCNc1nc(C)nc2c1nc(-c1ccccc1)n2CC1CCN(C)CC1,?
CCOc1cc(N2CCOCC2)c(OCC)cc1NC(=O)CN1C(=O)NC2(CCc3ccccc32)C1=O (stereo not drawn),5%
O=C(Cc1ccc(Br)cc1)N1CCN(c2ccccn2)CC1,-20%
COc1ccc(-c2csc(NC(=O)CN3C(=O)CCC3=O)n2)cc1OC,28µM*
COc1cc(S(=O)(=O)N2CCCC3(CCCCC3)C2)ccc1-n1cnnn1,-15%
C=CCOc1c2ccc(C(=O)NCc3ccc(OC)cc3)cc2nn1C,?
CC(Oc1ccc(Cl)cc1Cl)C(=O)OCn1nnc2ccccc2c1=O (stereo not drawn),-21%
CCN(CCO)Cc1csc2cc(C)ccc12,-13%
Cc1cc(N2CCN(C(=O)c3ccco3)CC2)n2nc(C)c(-c3ccc(Cl)cc3)c2n1,?
O=C(COC(=O)c1ccc(O)cc1)Nc1ccccc1-c1ccccc1,-16%
CCCCC(=O)NC1=C(C(=O)OC)SCC1,-9%
CCc1nnc(NC(=O)c2cccs2)s1,-9%
CCOC(=O)c1c(C)[nH]c(C)c1C(=O)CSc1nnnn1-c1ccccc1,-3%
CC(C)CN(C(=O)COC(=O)Cc1n[nH]c(=O)c2ccccc12)C1CCS(=O)(=O)C1 (stereo not drawn),-4%
COc1cc2c(cc1OC)-c1cc3ccc(OC)c(OC)c3c[n+]1CC2,-13%&-5%
Cc1ccc2nc(SCC(=O)Nc3cc([N+](=O)[O-])ccc3F)[nH]c2c1,-14%
CCOC(=O)c1c(/N=C/C2=C(O)CCCC2=O)sc(C)c1C,-7%
Cc1cc2ccccn2c1C(=S)NC(=O)c1ccccc1,-16%
Cc1[nH]c2ccccc2c1C(=O)COC(=O)Cn1c(C)nc2ccccc21,-21%
Cc1ccc([N+](=O)[O-])cc1N(CC(=O)Nc1ccc(S(=O)(=O)Nc2cccc(C(F)(F)F)c2)cc1)S(C)(=O)=O,-11%
Cc1ccc(-n2c(-c3ccncc3)nnc2-c2ccco2)cc1,-23%
O=C(N/N=C1/CC(c2ccccc2)Oc2ccccc21)C1CC1 (stereo not drawn),-10%

The list goes on.
canonical_smiles,HPGD block
O=C(NC12CC3CC(CC(C3)C1)C2)C1CCCN1C(=O)NC1CCCCC1 (stereo not drawn),-5%
CCc1nc(N2CCOCC2)c(C#N)c2c1COC(C)(C)C2,?
Cn1c(=O)cc(N2CCc3ccccc32)[nH]c1=O,-8%
Cc1ccnc(N2C(=O)c3ccccc3C2Nc2cccc(C)c2C)c1 (stereo not drawn),-12%
COc1ccccc1/C=C(\NC(=O)c1ccc(OC)c(OC)c1)C(=O)Nc1cccc([N+](=O)[O-])c1,-18%
CC(=O)Nc1cccc(NC(=O)CCn2cnc3cc(C)c(C)cc32)c1,-6%
Cc1ccc(CSc2nc3ccncc3n2CC(=O)Nc2cc(C)cc(C)c2)cc1,-13%
C=CCOC(=O)C1=C(C)Nc2nnnn2C1c1cc(OC)ccc1OC (stereo not drawn),2%
CN(Cc1ccccc1)Cc1ccccc1F,-18%
O=C(O)[C@H]1CCCNC1,6%
COc1nc(N)nc2c1ncn2[C@@H]1C[C@H](O)[C@@H](CO)O1,-3%

Given with the structure last: 3 of the compounds above
HPGD block	molecule
-16%	O=C(NC(Cc1ccccc1)C(=O)O)/C(=C\c1ccco1)NC(=O)c1ccccc1 (stereo not drawn)
-5%	CSCC[C@H](NC(=O)OC(C)(C)C)C(=O)N1CCC(C(=O)N[C@@H](C)C(=O)O)CC1
-6%	CCc1ccc(NC(=O)N(CCCOC(C)C)C2CCN(C(C)=O)CC2)cc1
